High-throughput results: PubChem, PCMD
Biofilm kill mix: mixtures killing C. albicans biofilm; C. albicans biofilm persisters + clotrimazole, fluorescence viability; primary screen in compound mixtures of four per well; inhibition, % at 7.6 µM; 120,000 compounds, 0.02% hits;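 active means inhibition above 30.3% in the primary screen of four-compound pools, then above 30% when the compound was retested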;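 further: compounds exposed to preformed 24 h biofilms for 48 h; the number belongs to the whole pool; some results filed as inactive read as strong as hits; inactives centre near 12; 0% = biofilm with clotrimazole alone and 100% = kill control; retested singly at about 60 µM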
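Probe or stimulus – Clotrimazole 50 µg/mL co-treatment · System – C. albicans biofilms · Schedule – 24 h biofilm formation, then 48 h compound exposure, 37 °C · Evaluation – percent inhibition of biofilm viability · Technique – 2-h Alamar Blue fluorescence, 535/590 nm excitation/emission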
* hit, by the source's call. A portion of the library. The share of hits here may be higher or lower than overall.

no. | SMILES | Biofilm kill mix
1 | O=[N+]([O-])c1ccc(Sc2ncccn2)c([N+](=O)[O-])c1 | 16
2 | O=C1CC(c2ccccc2)CC(O)=C1C=Nc1cccc(Cl)c1 (centres undefined) | 14
3 | Cc1ccc(Cc2c(C)nc3nc(SCC(=O)NCCCN4CCOCC4)nn3c2C)cc1 | 27
4 | CN(C)CCNC(=O)/C(=C/c1ccc(-c2cccc(Cl)c2)o1)NC(=O)c1ccccc1 | 12
5 | C/C(=N\NC(=O)c1ccccc1F)c1ccc(C#N)cc1 | 1
6 | Cc1ccc(C)c(NC(=O)COC(=O)Cc2ccsc2)c1 | 11
7 | O=C1CC(C(=O)N(c2ccccc2)C(C(=O)NC2CCCC2)c2ccncc2)CS1 (centres undefined) | 16
8 | CCN(CC)CCN(Cc1cc2cc(C)ccc2[nH]c1=O)C(=S)Nc1ccccc1 | 13
9 | CN(NS(=O)(=O)c1ccc(Cl)cc1)c1cnn(C)c(=O)c1Cl | 12
10 | O=C(Oc1coc(CSc2ncccn2)cc1=O)c1ccc(Br)o1 | 19
11 | NC(=O)CC(NC(=O)Cc1ccc(Br)cc1)c1ccc(NCCc2ccc(Cl)cc2)c([N+](=O)[O-])c1 (centres undefined) | 19
12 | CCOc1ccc(NC(=O)c2c(OC)cccc2OC)cc1 | 9
13 | O=C(Nc1ccccc1Cc1ccccc1)c1ccccc1NS(=O)(=O)c1ccc(Cl)s1 | 12
14 | COC(=O)CCC(=O)OC1(C)C(=O)C=C2C=C(C3CC3)N(Cc3ccco3)C=C2C1=O (centres undefined) | 17
15 | COc1ccc(OCc2nnc(SCC(=O)N(C)Cc3ccccc3)n2N)cc1 | 4
16 | O=[N+]([O-])c1c(NCCCO)cc(SCc2ccco2)c2nonc12 | 14
17 | Cc1cnc(NC(=O)CSc2nnc(C)n2N)s1 | 18
18 | CC(NC(=S)Nc1ccc(S(N)(=O)=O)cc1)c1ccc2c(c1)OCO2 (centres undefined) | 9
19 | Cc1cc(C)n(C(=O)c2nn(C)c(C)c2[N+](=O)[O-])n1 | -9
20 | CCN(c1ccccc1)S(=O)(=O)c1cc(C(=O)Nc2cccc(Cl)c2)ccc1F | -6

A different layout for part of the listing above.
16: O=[N+]([O-])c1c(NCCCO)cc(SCc2ccco2)c2nonc12
  Biofilm kill mix = 14

17: Cc1cnc(NC(=O)CSc2nnc(C)n2N)s1
  Biofilm kill mix = 18

18: CC(NC(=S)Nc1ccc(S(N)(=O)=O)cc1)c1ccc2c(c1)OCO2 (centres undefined)
  Biofilm kill mix = 9

19: Cc1cc(C)n(C(=O)c2nn(C)c(C)c2[N+](=O)[O-])n1
  Biofilm kill mix = -9

Later entries.
no. | SMILES | Biofilm kill mix
21 | Cc1c(Cl)cnc(NC(=O)COC(=O)c2cccc(S(=O)(=O)N3c4ccccc4CC3C)c2)c1Cl (centres undefined) | 4
22 | Cc1ccc(C(=O)Nc2ccc3c(c2)CCC3)cc1 | 21
23 | O=Nc1c(O)n(Cc2cccc(C(F)(F)F)c2)c2ccccc12 | 15
24 | CCN(CC)c1ccc2cc(C(N)=O)/c(=N\NC(=O)c3ccncc3)oc2c1 | 6
25 | CC(=O)N(CN1C(=O)c2ccccc2C1=O)c1ccc2c(c1)oc1ccccc12 | 14
26 | O=C(Nc1ccc2c(c1)CCC2)c1cccc(S(=O)(=O)Nc2ccccc2Cl)c1 | -4
27 | Cc1ccc(NC(=O)/C(=C/C=C/c2ccccc2)NC(=O)c2ccccc2)cc1 | 16
28 | O=C1NC(=O)c2cc(Br)cc3cccc1c23 | 6
29 | O=[N+]([O-])c1cccc2ccc(/C=C/c3ccc(Cl)cc3)nc12 | 19
30 | O=C(O)CC1(CC(=O)Nc2ccc(Cl)cc2C(=O)c2ccccc2)CCCC1 | 18
31 | CSC1=NCCN1CCOc1ccccc1 | 29
32 | CCOC(=O)/C=C/c1cnn(-c2ccccc2)c1 | 0
33 | CC(=O)Nc1ccc(/C=C(\C#N)C(N)=O)cc1 | -4
34 | CN(C1=NS(=O)(=O)c2ccccc21)c1ccc(OC(=O)c2ccncc2)cc1 | 0
35 | O=C(Cc1ccccc1)Nc1ccccc1Sc1ccccc1 | 1
36 | COc1cccc(C2/C(=C(/O)c3ccc(C)cc3)C(=O)C(=O)N2Cc2ccco2)c1 (centres undefined) | 8
37 | Cc1cc(C(=O)CN2C(=O)NC3(CCCCC3)C2=O)c(C)n1-c1ccc2c(c1)OCO2 | 13
38 | COc1ccc(NC(=O)CSc2nnc(NC(=O)c3ccco3)s2)cc1 | 2
39 | COc1cccc(S(=O)(=O)Nc2ccc(C(=O)N3CCN(C(=O)c4ccco4)CC3)cc2)c1 | 9
40 | CCCCC(CC)CNC(=O)C(=O)C1C(=O)Nc2ccccc21 (centres undefined) | 15
41 | CCc1ccc(-c2cc(-c3n[nH]c(=S)n3CC)c3ccccc3n2)cc1 | 9
42 | O=[N+]([O-])c1ccc(NCCCO)c(S(=O)(=O)N2CCOCC2)c1 | 9
43 | Cc1ccc2nc(NC(=O)CSCC(=O)OCC(=O)c3ccccc3)sc2c1 | -1
44 | CCCC(=O)C1=C(N2CCCC2)CC(C)(C)C(C(=O)OC)C1=O (centres undefined) | -1
45 | Cc1nn(Cc2c(Cl)cccc2Cl)c(Cl)c1/C=N/NC(=O)c1cccnc1 | 9
46 | Cc1ccc(C)c(NC(=S)N(C)C)c1 | 8
47 | Cc1cccc(C(=O)Oc2ccc(/C=N/NC(=O)Cc3ccc([N+](=O)[O-])cc3)cc2)c1 | 3
48 | O=C(COC(=O)Cc1ccc(Br)cc1)Nc1c(F)c(F)c(F)c(F)c1F | 16
49 | O=C1CC(N2CCN(c3ccccc3)CC2)C(=O)N1c1ccc2c(c1)OCO2 (centres undefined) | 11
50 | CCC1C(=O)CC(c2ccc([N+](=O)[O-])cc2)NC1c1ccc([N+](=O)[O-])cc1 (centres undefined) | 5
51 | COCCCNS(=O)(=O)c1ccc(C)cc1 | 31
52 | COc1ccc(CN2C(=O)CS/C2=N/N=C/c2ccccc2)cc1 | 11
53 | NNc1nc2c(-c3ccc(F)cc3)nnn2c2ccccc12 | 12
54 | CCOC(=O)C1CCCN(C(c2ccccn2)c2c(C)[nH]c3ccccc23)C1 (centres undefined) | 1
55 | CC(=O)c1ccc(NC(=S)NNC(=O)c2ccncc2)cc1 | 15
56 | Cc1ccc(NC(=O)Nc2cc(S(C)(=O)=O)ccc2Cl)cc1 | 19
57 | O=S(=O)(Nc1cccc(Oc2cnccn2)c1)c1ccc(F)cc1 | 16
58 | CCCCCC(=O)c1ccc(O)cc1O | 6
59 | Fc1ccc(C2CC(c3cccs3)=NN2c2ccccc2)cc1 (centres undefined) | 8
60 | Cc1c(NC(=O)CN2C(=O)NC(CCc3ccccc3)C2=O)c(=O)n(-c2ccccc2)n1C (centres undefined) | 11

Reprinted at random: 4 compounds from above, in no set order.
no. | SMILES | Biofilm kill mix
51 | COCCCNS(=O)(=O)c1ccc(C)cc1 | 31
46 | Cc1ccc(C)c(NC(=S)N(C)C)c1 | 8
42 | O=[N+]([O-])c1ccc(NCCCO)c(S(=O)(=O)N2CCOCC2)c1 | 9
59 | Fc1ccc(C2CC(c3cccs3)=NN2c2ccccc2)cc1 (centres undefined) | 8

Later entries
no. | SMILES | Biofilm kill mix
61 | CCc1ccc2c(CSc3nnnn3C)cc(=O)oc2c1 | 8
62 | Fc1ccccc1CSc1nnc(-c2cccnc2)o1 | 13
63 | O=C(COC(=O)c1cccs1)NC12CC3CC(CC(C3)C1)C2 | 18
64 | COc1cc(CCC(=O)Nc2cc(C)cc(C)c2)cc(OC)c1OC | 0
65 | COc1ccc(-c2nn(-c3ccccc3)cc2/C=N/NC(N)=S)cc1OC | 17
66 | CC(C)(O)CCCC(C)(O)c1ccc(C(=O)O)cc1O (centres undefined) | 13
67 | O=C(CN(CCc1ccccc1)S(=O)(=O)c1ccc(Cl)cc1)N/N=C/c1ccccc1C(=O)O | 9
68 | O=C(NC1CC1)C1CCN(C2CCN(C(=O)/C=C/c3cccs3)CC2)CC1 | -7
69 | Cn1c(N)c(C(=O)COC(=O)c2cncc(Br)c2)c(=O)n(C)c1=O | 10
70 | COCCCN(C(=S)Nc1c(C)cc(C)cc1C)C(C)c1ccccn1 (centres undefined) | 11
71 | Cc1ccc(S(=O)(=O)N2CCN(CC(=O)N/N=C/c3ccco3)CC2)cc1 | 22
72 | COc1ccc(COC(=O)N/N=C(\C)CC(=O)NCc2ccc(Cl)cc2)cc1 | 12
73 | O=C(COC(=O)/C=C/c1ccccc1[N+](=O)[O-])Nc1ccc(OC(F)F)cc1 | 7
74 | CCOC(=O)/C=C/C(=O)NNC(=O)c1ccccc1Cl | 12
75 | CC(=O)Nc1ccccc1NS(=O)(=O)c1ccccc1[N+](=O)[O-] | 24
76 | O=C(CCCCn1c(=S)[nH]c2ccsc2c1=O)NCc1ccc2c(c1)OCO2 | -12
77 | CCN(CC)c1ccc(N/C(N)=N/c2nc(C(F)(F)F)cc(=O)[nH]2)cc1 | 11
78 | Nc1nc(NCc2ccccc2)nc(NCCO)c1[N+](=O)[O-] | 21
79 | O=C(CCN1C(=O)c2cccc3cccc(c23)C1=O)NCC1CCCO1 (centres undefined) | 22
80 | O=C(NN=C1C2CC3CC1CC(Cl)(C3)C2)c1cccs1 | 30
81 | CN(CC(=O)Nc1sccc1C#N)Cc1ccccc1 | 10
82 | COC(=O)[C@H]1[C@H]2C[C@@H]3c4[nH]c5cc(OC)ccc5c4CCN3C[C@H]2C[C@@H](OC(=O)c2ccc(N)cc2)[C@@H]1OC | 19
83 | CCOc1ccc(CN2CCN(Cc3[nH]c4ccc(OC)cc4c3C)CC2CCO)cc1 (centres undefined) | 7
84 | CCOC(=O)C1C(c2ccc(O)c(O)c2)NC(=S)NC1(O)C(F)(F)F (centres undefined) | 13
85 | COCCOC(=O)c1c(NC(=O)CN2CCCc3ccccc32)sc(C(N)=O)c1C | 17
86 | Cc1cccc(N2CCN(C(=S)Nc3ccc4nc5n(c(=O)c4c3)CCCCC5)CC2)c1C | -5
87 | Clc1ccc(-c2cc(COc3ccccc3)on2)cc1 | -14
88 | Cc1c(NC2(C#N)CCCCC2)c(=O)n(-c2ccccc2)n1C | 18
89 | CN(C)c1nc(NC(C)(C)C)nc(SCC(=O)Nc2ccccc2)n1 | 19
90 | Cc1ccc(NNC2CC(=O)N(c3cccc(Cl)c3)C2=O)cc1 (centres undefined) | 7
91 | Cn1c(=O)nc2n(Cc3ccccc3)c3cccc(Cl)c3cc-2c1=O | 25
92 | CCO/C=C1\N=C(c2ccc(F)cc2)OC1=O | 8
93 | CCOc1ccc(NC(=S)N(CC)Cc2ccccc2)cc1 | 7
94 | CC(C)n1cc(CN2CCN(CCc3ccccc3)C(CCO)C2)cn1 (centres undefined) | -2
95 | O=C(O)/C=C/c1cnc2ccccc2n1 | 10
96 | CCC(C)C(NC(N)=O)C(=O)Nc1ccc(S(=O)(=O)Nc2ccc(OC)cc2)cc1 (centres undefined) | 9
97 | CCN(CC)c1ccc(C(=O)OCC(=O)Nc2sccc2C#N)cc1 | 17
98 | O=C(c1cc(NC(=O)C23CC4CC(CC(C4)C2)C3)cc(NC(=O)C23CC4CC(CC(C4)C2)C3)c1)N1CCCCC1 | 9
99 | O=C(NC1CCN(Cc2ccccc2)CC1)c1ccc(S(=O)(=O)NCc2ccco2)cc1 | -4
100 | Cn1nc(C(F)(F)F)c(-c2cccc(C(F)(F)F)c2)c1NC(=O)c1cccnc1 | 13

Given field by field: 2 of the compounds above.
46. Cc1ccc(C)c(NC(=S)N(C)C)c1
  Biofilm kill mix: 8

47. Cc1cccc(C(=O)Oc2ccc(/C=N/NC(=O)Cc3ccc([N+](=O)[O-])cc3)cc2)c1
  Biofilm kill mix: 3

Other results
no. | SMILES | Biofilm kill mix
101 | O=C(NC(=S)NNC(=O)c1ccccc1[N+](=O)[O-])c1ccccc1 | 10
102 | Cc1ccc(CSc2ncnc3onc(C)c23)cc1 | 6
103 | CC(C)(C)c1ccc(OCCCC(=O)Nc2ccc(S(N)(=O)=O)cc2)cc1 | 2
104 | O=C(COC(=O)c1cncc(Br)c1)NCc1ccc2c(c1)OCO2 | 5
105 | Cc1ccc(-n2cc(-c3ccccc3)c3c(NN4CCOCC4)ncnc32)cc1 | 19
106 | CCN(CC)S(=O)(=O)c1ccc(C(=O)NCCSc2c[nH]c3ccccc23)cc1 | 13
107 | CCCc1nc2ccccc2c(C(=O)OCC(=O)NCc2ccc3c(c2)OCO3)c1CC | 12
108 | C(=N\Nc1nc2ccccc2[nH]1)/c1ccc2c(c1)OCO2 | 10
109 | CCOC(=O)C1CCN(Cc2ccc(F)cc2)CC1 | 13
110 | C/C(=N/OCO/N=C(\C)c1ccccc1)c1ccccc1 | 14
111 | N/C(=N\OC(=O)Cc1ccc([N+](=O)[O-])cc1)c1cccc(Br)c1 | -10
112 | COC(=O)C1=NNCC12CC(=O)N(c1ccc(Br)cc1)C2=O (centres undefined) | 21
113 | CC(C)c1ccc(NC(=O)CSc2ncccc2C(=O)Oc2cccc([N+](=O)[O-])c2)cc1 | 28
114 | CCOc1ccccc1NC(=O)[C@@H](NC(=O)c1cccc(S(=O)(=O)N2CCOCC2)c1)C(C)C | 8
115 | Cc1onc(-c2c(F)cccc2Cl)c1C(O)c1ccc(F)cc1 (centres undefined) | 18
116 | CCOc1ccc(C(=O)NC2=NCCS2)cc1 | 0
117 | O=[N+]([O-])c1cc(CN2CCN(c3ccccc3)CC2)c(O)c2ncccc12 | 24
118 | CCOC(=O)C(NC(C)=O)C(=O)Nc1ccc(C(C)(C)C)cc1 (centres undefined) | 6
119 | Clc1nc(Nc2ccc(N3CCOCC3)cc2)c2ccccc2n1 | 29
120 | CC(C)(C)NC(=O)COc1ccc(CNCc2ccccn2)cc1 | 12
121 | COc1ccc(N/N=C(\C#N)C(N)=O)cc1 | 15
